KCNQ2 inh – KCNQ2 channel blockers in CHO-K1 cells – cell-based, FluxOR thallium flux, B-score, primary screen (AID 2156) | O88943 | 20 min; active compounds read low; only compounds with negative scores are shown here; some inactives read as strong as hits | B-score at 10 µM | hit rate 1.1% among 310,000;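 active = fluorescence ratio B-score at most minus 3 library SDs, with starting brightness B-score within 2 library SDs, cut at about -5.5 in these data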
Target sequence (O88943 whole entry, looked up): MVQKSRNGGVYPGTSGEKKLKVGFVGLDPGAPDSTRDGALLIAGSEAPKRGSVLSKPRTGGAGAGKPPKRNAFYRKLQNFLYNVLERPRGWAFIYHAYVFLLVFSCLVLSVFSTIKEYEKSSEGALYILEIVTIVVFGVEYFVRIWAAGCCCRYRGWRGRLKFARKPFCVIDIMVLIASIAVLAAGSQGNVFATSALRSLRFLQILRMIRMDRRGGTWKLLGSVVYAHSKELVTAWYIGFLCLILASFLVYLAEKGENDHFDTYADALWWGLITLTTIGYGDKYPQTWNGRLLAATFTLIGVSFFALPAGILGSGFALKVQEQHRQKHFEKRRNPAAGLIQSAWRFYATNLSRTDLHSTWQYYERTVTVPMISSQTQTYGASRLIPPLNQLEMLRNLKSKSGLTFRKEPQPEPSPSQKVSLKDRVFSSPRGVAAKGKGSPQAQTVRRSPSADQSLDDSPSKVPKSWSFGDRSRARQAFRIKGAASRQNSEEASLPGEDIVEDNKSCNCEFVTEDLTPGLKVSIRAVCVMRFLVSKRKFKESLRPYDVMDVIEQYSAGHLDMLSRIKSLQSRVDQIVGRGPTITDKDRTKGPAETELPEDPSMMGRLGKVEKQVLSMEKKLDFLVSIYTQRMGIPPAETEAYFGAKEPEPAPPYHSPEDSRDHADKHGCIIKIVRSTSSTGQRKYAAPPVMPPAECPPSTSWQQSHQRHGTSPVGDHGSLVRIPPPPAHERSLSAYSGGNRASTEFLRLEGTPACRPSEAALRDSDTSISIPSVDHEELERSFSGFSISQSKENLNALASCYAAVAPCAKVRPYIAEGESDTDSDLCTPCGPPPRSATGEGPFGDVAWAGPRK
KCNQ2 inh baseline – recorded beside KCNQ2 inh, whose call it bears; B-score; measured here: initial fluorescence intensity artifact check;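 brightness before thallium and not channel activity; 0 = typical well and far values either way flag optical interference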
Active calls of the source: *; i = inactive. Only part of the results is shown; count on the stated rates, not on these rows.

Molecule,KCNQ2 inh,KCNQ2 inh baseline
N#CCSc1nc2c(c(C3CC=CCC3)c1C#N)CCC2 (stereo not drawn),i,-0.04
Cc1cccc(C)c1NC(=O)CN1C(=O)NC(C)(CCc2ccccc2)C1=O (stereo not drawn),i,1.4
COc1cnc(-c2cccc(C(F)(F)F)c2)[nH]c1=O,i,-0.68
CCCc1cc(=O)[nH]c(SCC(=O)N2CCN(S(=O)(=O)c3ccc(C)cc3C)CC2)n1,i,0.04
Nc1cc2c3c(cccc3c1)C(=O)N(CCN1CCCC1)C2=O,i,5.4
CCn1c2ccccc2c2cc(NC(=O)CSc3nnc(-c4cccc(OC)c4)n3N)ccc21,i,1.2
CC1=CC(C)(C)N(C(=O)CSc2nnc(-c3ccc(C)cc3)o2)c2ccc(C)cc21,i,-1.4
CC#CCN1c2ccccc2[C@]23C[C@@H](C(=O)OC)N(C(=O)NC4CCCCC4)C2=NC(C(=O)OC)=C(C(=O)OC)[C@H]13,i,1.4
O=C(CCOc1ccccc1)Nc1ccnn1C1CCN(C(=O)CCC(F)(F)F)CC1,i,-2.1
Cc1ccc(-c2nc3ccccc3[nH]2)cc1NC(=O)/C=C/c1ccco1,i,-0.33
Cc1ccc(-c2nnn(CC(=O)NC3CCCc4ccccc43)n2)cc1 (stereo not drawn),i,0.36
O=c1[nH]c(Sc2ccc([N+](=O)[O-])cc2[N+](=O)[O-])nc2ccccc12,i,0.33
NC(=O)c1ccsc1NC(=O)CSc1nnc2ccccn12,i,0.22
CC(NC(=O)c1ccc(Br)s1)c1ccncc1 (stereo not drawn),i,0.09
COC(=O)c1ccc(NC(=O)CSc2nnc(C)n2-c2ccccc2)cc1,i,-0.75
CCN(CC)c1ccc(N)cc1S(=O)(=O)Nc1ccccc1OC,i,2.2
Cc1cc(C)cc(NC(=O)N2CCC(NC(=O)c3ccco3)CC2)c1,i,-0.85
O=c1[nH][nH]c(C(F)(F)F)c1C=NCc1cccs1,i,-1.5
CC1(C)SC2c3ccccc3C(=O)N2[C@@H]1C(=O)NC1CC1 (stereo partly drawn),i,-0.33
O=C(COc1ccccc1)NNC(=S)NC(=O)c1ccc(Cl)cc1Cl,i,-0.16
O=Cc1ccc(N2CCCCC2)cc1,i,0.22
CCOC(=O)C1(CCOc2ccccc2)CCN(Cc2ccc(NC(C)=O)cc2)CC1,i,2.5
COc1ccc(Cl)cc1Nc1nc(N)c2ccccc2n1,i,-1.9
CCC(C)c1ccccc1NC(=O)C(C)N(C)Cc1cccc(OC)c1 (stereo not drawn),i,0.43
C/C(=N\NC(=O)c1cccc(N/N=C(\C)c2cc(O)ccc2O)c1)c1cc(O)ccc1O,i,-0.13

Arranged by length of the SMILES (lowest first): part of the list above.
Molecule,KCNQ2 inh,KCNQ2 inh baseline
O=Cc1ccc(N2CCCCC2)cc1,i,0.22
CC(NC(=O)c1ccc(Br)s1)c1ccncc1 (stereo not drawn),i,0.09
Nc1cc2c3c(cccc3c1)C(=O)N(CCN1CCCC1)C2=O,i,5.4
CCOC(=O)C1(CCOc2ccccc2)CCN(Cc2ccc(NC(C)=O)cc2)CC1,i,2.5
O=c1[nH]c(Sc2ccc([N+](=O)[O-])cc2[N+](=O)[O-])nc2ccccc12,i,0.33

Remaining list, next part
Molecule,KCNQ2 inh,KCNQ2 inh baseline
Cc1cc(C(=O)C(=O)O)c(C)n1-c1ccc(Cl)c(Cl)c1,i,-1
CCOC(=O)C1(S(=O)(=O)c2ccc(Cl)cc2)CCN(Cc2ccc(Cl)cc2)CC1,i,-1.4
O=C(NCCc1ccc(Cl)cc1)C1CCC(CNc2nc(=S)[nH]c3ccccc23)CC1 (stereo not drawn),i,-0.67
COc1cccc(-c2ccc(NC(=O)C3CCCN(Cc4cnn(C)c4)C3)cc2)c1 (stereo not drawn),i,-1.1
CC1=C(C)CC(C(=O)Nc2nc(-c3ccc(F)cc3)c(C)s2)C(C(=O)O)C1 (stereo not drawn),i,0.45
Cc1cccc(C(=O)NCCNc2nc3cc(C)c(C)cc3cc2C)c1,i,-0.26
COc1ccc(OC)c(S(=O)(=O)n2nnc3cc(Cl)ccc32)c1,i,0.02
S=c1[nH]nc(-c2ccn[nH]2)n1-c1ccccc1Cl,i,1.8
O=c1[nH]c2ccccc2cc1CN(Cc1cccnc1)S(=O)(=O)c1ccc(Cl)cc1,i,1
COc1ccc(/C=N/NC(=O)c2cc3c(ccc4ccccc43)o2)c(OC)c1,-6.3*,-1.3*
FC(F)(F)c1cnc(-c2cnc(-c3ccncc3)nc2)c(Cl)c1,i,-0.63
CCCCC(CC)CNC(=O)CCCCn1c(=O)[nH]c2ccsc2c1=O (stereo not drawn),i,-0.89
COC(=O)c1cn(NC(=O)Cc2ccccc2OC)c(=O)c2ccccc12,i,-0.21
CC1=NN(c2nc(-c3ccccc3)cs2)C(=O)C1,i,-2.3
O=[N+]([O-])c1ccc(N=Nc2c(O)[nH]c3ccc(F)cc23)cc1,i,-0.92
CCCCc1nc2sc3c(c2c(=O)n1NC(=O)c1ccco1)CC(C)(C)OC3,i,1.1
CC(=O)NCC(=O)OCC(=O)c1ccc(Br)cc1,i,1.1
COC(=O)/C(=C/c1ccco1)NC(=O)c1ccc(Br)o1,i,2.1
O=C(O)c1c2c(nc3ccccc13)/C(=C/c1ccc(O)cc1)CC2,i,0.6
CC(C)n1c(SCC(=O)Nc2ccccc2N2CCCCC2)nc2c1c(=O)n(C)c(=O)n2C,i,-0.82
O=C(CN1CCOc2ccccc21)NCc1ccco1,i,-1
CCOC(=O)c1nn(-c2cccc(OC)c2)c2nc(Nc3ccccc3)cc(=O)n12,i,-0.95
O=c1c(-c2ccc([N+](=O)[O-])cc2)coc2c(O)c(O)ccc12,i,1.4
Cc1cc(NC(=O)CSc2ccc3c(c2)OCCO3)no1,i,0.41
CCCC(CCC)=NNc1ccc(S(=O)(=O)Nc2ccccc2OC)cc1[N+](=O)[O-],i,-0.43
CCOc1ccc(NC(=O)N2CC=C(n3c(=O)[nH]c4ccccc43)CC2)cc1,i,1.7
COc1ccc(S(=O)(=O)Nc2cc3c4c(c2)CC(=O)N4CCC3)cc1,i,0.58
CCCNC(=O)c1nn2cc(Br)cnc2c1Cl,i,-1.2
Clc1ccc(NNc2ccnc3cc(Cl)ccc23)cc1,i,2.5
O=C(CC(Nc1ccc(F)cc1)C(=O)OCC(=O)c1cccs1)c1ccccc1 (stereo not drawn),i,0.05
COc1cc(/C=C/C(=O)OCC(=O)NCC2CCCO2)ccc1OCC#N (stereo not drawn),i,1.4
Clc1ccc(-c2nnc(C3CC3)o2)cc1,i,1.2
O=C(c1cccc(F)c1)N1CCN(C(=O)c2cc3ncc(Br)cn3n2)CC1,i,1.3
Cc1ccnc(NC(=O)CSc2ccccn2)c1,i,1.2
FC(F)(F)c1cccc(Nc2nc(N3CCOCC3)nc(N3CCOCC3)n2)c1,i,1.4
O=C(c1cc2c(F)cccc2s1)N1CCCC1,i,1
O=C(Cc1cccs1)NCc1cccs1,i,0.55
Cc1ccc(Cl)cc1N1CCN(S(=O)(=O)c2ccc3c(c2)NC(=O)C(C)C(=O)N3)CC1 (stereo not drawn),i,0.24
CCn1c(COc2ccccc2C)nnc1SCC(=O)CC(=O)Nc1ccccc1,i,0.18
C#CCN(CC=C)C(=O)CCc1nnc(COc2ccccc2)o1,i,0.07
OCCN1CCN(c2ncnc3ccc(Br)cc23)CC1,i,0.35
O=c1cc2c(=O)oc3cc(O)c(O)oc3c2c(O)c1O,i,1.5
COc1ccc(CNC(=O)C2CCN(c3nc(-c4ccccc4)nc4c3CCC4)CC2)cc1,i,-0.69
CCOC(=O)CS(=O)(=O)CC(=O)Nc1ccc([N+](=O)[O-])cc1OC,i,-0.21
COc1ccc(C2CC(O)(C(C)(C)O)NO2)cc1 (stereo not drawn),i,1.1
CC(/C=N/Nc1ccc2nncn2n1)=C\c1ccccc1,i,-1
CCc1noc(C)c1C(=O)N(CCCOC)c1c(N)n(Cc2ccccc2)c(=O)[nH]c1=O,i,1.1
COc1ccc(OCC(O)Cn2c(Br)nc3c2c(=O)[nH]c(=O)n3C)cc1 (stereo not drawn),i,0.59
COc1ccc(CNC(=O)c2csc(Cc3ccc(OC)cc3)n2)cc1,i,-0.68
Cc1sc(NC(=O)c2ccco2)c(C(c2ccncc2)N2CCOCC2)c1C (stereo not drawn),i,-1.4

Entries of single compounds from above. Values in the order: KCNQ2 inh | KCNQ2 inh baseline
`Cc1ccc(Cl)cc1N1CCN(S(=O)(=O)c2ccc3c(c2)NC(=O)C(C)C(=O)N3)CC1` (stereo not drawn) in the list: i | 0.24
`O=C(CC(Nc1ccc(F)cc1)C(=O)OCC(=O)c1cccs1)c1ccccc1` (stereo not drawn) in the list: i | 0.05
`O=C(c1cc2c(F)cccc2s1)N1CCCC1` in the list: i | 1

(continued)
Molecule,KCNQ2 inh,KCNQ2 inh baseline
C/C(=C\C(=O)c1ccc(Br)cc1)NCc1ccc(C)cc1,i,1.1
C=CCn1c(N)c(C(=O)NCC2CCCO2)c2nc3ccccc3nc21 (stereo not drawn),i,0.12
O=[N+]([O-])c1ccc(S(=O)(=O)NCC(c2cccnc2)N2CCOCC2)cc1 (stereo not drawn),i,-1.3
CC(C)(C)NC(=O)C(c1ccc(F)cc1)N(Cc1ccco1)C(=O)CCC(=O)Nc1nccs1 (stereo not drawn),i,-1.8
CCCC(=O)Nc1cccc(S(=O)(=O)N(C)c2ccccc2)c1,i,-0.82
Cc1ccc(Cl)cc1NC(=O)CN1C(=O)COc2ccc(S(=O)(=O)N3CCOCC3)cc21,i,-0.14
Cc1ccccc1Nc1nc(Cl)c(C=O)s1,i,1.3
COc1ccc(-n2c(Cc3cc(=O)[nH]c(=O)[nH]3)nnc2SCc2ccccc2)cc1,i,2.2
COc1ccc(CNC(=O)CC(C)CC2=NS(=O)(=O)c3ccccc3N2)cc1 (stereo not drawn),i,0.01
COc1ccc(CNC(=O)CSCc2cnn(-c3ccccc3)c2-n2cccc2)cc1,i,1.2
Cc1c(O)ccc2c(CC(=O)N[C@@H](Cc3ccc(O)cc3)C(=O)O)cc(=O)oc12,i,0.63
COc1cc(NC(=O)c2cccs2)c(OC)cc1NC(=O)Cc1ccccc1,i,-1.5
Cc1ccc2nsnc2c1NC(=O)c1ccccc1[N+](=O)[O-],i,1.4
Cc1nn(C(=O)c2cccnc2)c(C)c1C,i,0.33
COC(=O)c1cn(C(=O)OC)c2ccccc12,i,1.9
COc1ccc(NC(=O)CCn2ccnc2)c(OC)c1,i,4
CCCCn1c(=O)c(C(=O)OCC)c(O)c2ccccc21,i,0.19
COc1cc2c(cc1OC)CN(CC(=O)Nc1ccc(C#N)cc1)CC2,i,1.3
CNS(=O)(=O)c1cc(C(=O)OCC(=O)NC2CCCc3ccccc32)ccc1Cl (stereo not drawn),i,-0.79
O=C(NCc1ccccc1Cl)C1CCCN(S(=O)(=O)c2cnc[nH]2)C1 (stereo not drawn),i,0.35
COc1cc(NS(=O)(=O)c2ccc(NC(=S)NC(=O)c3ccco3)cc2)nc(OC)n1,i,-1.3
O=C(O)c1ccc(NS(=O)(=O)c2cc(C(=O)O)ccc2Br)cc1,i,0.56
CCOC(=O)COc1cc(OCC(=O)OCC)c2c(=O)cc(-c3ccccc3)oc2c1,i,2.2
COC(=O)c1ccc(COc2ncnc3sccc23)cc1,i,-0.91
Cc1onc(-c2c(F)cccc2Cl)c1C(=O)Nc1nnc(C2CC2)s1,i,-1
COCCn1c(=O)[nH]c2cc(C(=O)NCC3CCCO3)ccc2c1=O (stereo not drawn),i,0.11
BrC(/C=N/N1CCN(Cc2ccccc2)CC1)=C/c1ccccc1,i,1.6
CCCc1cc(=O)oc2cc(C)cc(OCC(=O)N3CCC(C(=O)O)CC3)c12,i,0.2
COc1ccc(NC(=O)C2CCCN2S(=O)(=O)c2ccc(Cl)cc2)cc1 (stereo not drawn),i,0.07
Cc1nc2ccccn2c1C(=O)NNC(=S)Nc1ccccc1,i,-0.67
Cc1cc(C(=O)CN2C(=O)NC(C)(c3ccccc3)C2=O)c(C)n1CC1CCCO1 (stereo not drawn),i,-0.24
O=C(CSc1nnc(CCCOc2ccc(Cl)cc2Cl)o1)Nc1ccc(C(=O)O)cc1,i,0.62
O=C1c2ccccc2C(=O)N1CCc1csc(-c2cccc(Cl)c2)n1,i,-2
CN(C)c1cc[n+](CC(=O)N2c3ccccc3Sc3ccccc32)cc1,i,0.06
CCc1ccc(C(=O)NCC2COc3ccccc3O2)o1 (stereo not drawn),i,-0.01
Cc1cccc(Nc2ccc3nonc3c2[N+](=O)[O-])c1C,i,0.92
COc1cccc(CN(C)C(=O)c2csc3c2CCCC3)c1OC,i,1.1
CC(=O)c1ccc(OCCCC(=O)NC2CCCc3ccccc32)cc1 (stereo not drawn),i,0.27
O=C(N/N=C\c1ccc(-c2ccccc2[N+](=O)[O-])o1)C1COc2cc3ccccc3cc2O1 (stereo not drawn),i,-0.6
Cc1ccc(C)c(S(=O)(=O)Nc2ccc(C(=O)NCCCN3CCOCC3)cc2)c1,i,-0.3
CCOC(=O)CSc1ncnc2c1cnn2-c1ccc(C)cc1C,i,-1.1
Cc1ccc(C)c(-c2nnc(NC(=O)c3ccco3)o2)c1,i,0.86

Source: PubChem (Johns Hopkins Ion Channel Center)
